Mtb H37Rv = Mycobacterium tuberculosis H37Rv growth inhibition, putative kinase inhibitor library, confirmatory dose response (AID 2842) | M. tuberculosis H37Rv growth inhibition; higher % means a stronger effect; some inactives read as strong as hits | one-dose inhibition, % at 10 µg/mL; IC90 in µg/mL for titrated hits | 24,000 compounds, 5.2% hits;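 active = confirmed in a dose series; about a fifth of its hits are not listed in these tables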;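 also: bacteria incubated one week before Alamar blue readout; 0% = bacteria only wells and 100% = bacteria with high antibiotic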
The depositor's hits bear a star.

SMILES	Mtb H37Rv
Cc1ccc2c(c1)C(c1ccccc1)N(C(=O)c1ccc(-c3ccccc3)cc1)CC(=O)N2 (stereo unspecified)	5µg/mL*
CCOc1ccccc1/C=N/NC(=O)CNC(=O)c1ccc(OC)c(OC)c1	0%
O=C(CSc1ncnc2[nH]ncc12)c1ccccc1	5%
Cc1ccc(NC(=O)CSc2nnc(-c3cccnc3)n2-n2cccc2)cc1Cl	0%
COc1ccc(C(=O)NCCn2cc(SCC(N)=O)c3ccccc32)cc1OC	-9%
CC1CCc2oc3c(cc(NS(=O)(=O)c4ccc(C(C)(C)C)cc4)c4ccccc43)c2C1 (stereo unspecified)	-2%
CCN(CC)Cc1c(O)ccc2c1O/C(=C\c1ccc(C(=O)OC)cc1)C2=O	-7%
CN1C(=O)c2cccc(NC(=O)/C=C/c3cccs3)c2C1=O	-5%
O=C(Nc1nccs1)c1cccc(NS(=O)(=O)c2ccc(F)cc2)c1	-2%
COc1ccccc1-c1nc(SCC(=O)c2ccccc2)c2c(=O)n(C)c(=O)n(C)c2n1	1%
Cc1nc2sc(C(c3ccc(Br)cc3)N3CCN(CCO)CC3)c(O)n2n1 (stereo unspecified)	2%
CC1C(=O)N2CCCc3cc(NC(=O)C(=O)NCc4cccs4)cc1c32 (stereo unspecified)	4%
Clc1ccc(CSc2ccc3nnc(-c4cccs4)n3n2)cc1	12%
Cc1ccc(S(=O)(=O)NCC(=O)N2CCOCC2)cc1	-14%
Cc1cccc(N2C(=O)N(c3ccc([N+](=O)[O-])cc3)C3CS(=O)(=O)CC32)c1C (stereo unspecified)	-8%
O=C(Cn1c(O)c(C2=NC(=S)NC2=O)c2ccccc21)Nc1cccc(Cl)c1	-4%
Cc1ccc(-n2c(SCC(N)=O)nc3c(c2=O)SCC3)cc1	31%
CC(=O)N1CCc2cc(NC(=O)CSc3nnc4ccccn34)ccc21	-12%
Cn1c(=O)[nH]c(=O)c2c1nc(SCc1ccc(F)cc1)n2Cc1ccccc1Cl	13%
CCn1cc(C(=O)Nc2nccs2)c2nn(-c3ccccc3)c(=O)c-2c1	2%
COc1ccc(/C=C\C(=O)NCCc2cc3c(OC)ccc(OC)c3[nH]c2=O)cc1OC	-1%
COc1ccccc1C1NC(=O)NC(C)=C1C(=O)Nc1cccc(C)c1C (stereo unspecified)	2%
CCC(=O)Nc1nc2ccc3nc(SC)sc3c2s1	-3%
Cc1ccc(S(=O)(=O)ON=C2C=CC(=O)C=C2)cc1	2%
Cc1ccc2[nH]c(O)c(N=NC(=O)CCCCCC(=O)N=Nc3c(O)[nH]c4ccc(C)cc34)c2c1	-8%

Arranged by formula weight (rising): some entries from above
SMILES	Mtb H37Rv
O=C(CSc1ncnc2[nH]ncc12)c1ccccc1	5%
Cc1ccc(-n2c(SCC(N)=O)nc3c(c2=O)SCC3)cc1	31%
COc1ccccc1C1NC(=O)NC(C)=C1C(=O)Nc1cccc(C)c1C (stereo unspecified)	2%
O=C(Nc1nccs1)c1cccc(NS(=O)(=O)c2ccc(F)cc2)c1	-2%
CC1CCc2oc3c(cc(NS(=O)(=O)c4ccc(C(C)(C)C)cc4)c4ccccc43)c2C1 (stereo unspecified)	-2%

New compounds follow:
SMILES	Mtb H37Rv
CCn1c(SCc2ccccc2)nc2c1c(=O)[nH]c(=O)n2C	24%
CCc1cc(C(=O)OC)c(NC(=O)CC2Nc3ccccc3NC2=O)s1 (stereo unspecified)	-3%
CC(=O)Nc1ccc(S(=O)(=O)NC(C)(C)C(=O)O)cc1	8%
O=C(Nc1nnc(-c2cccc([N+](=O)[O-])c2)s1)c1ccc(S(=O)(=O)N2CCOCC2)cc1	3%
CSc1cccc(-c2nnc(NC(=O)c3cc([N+](=O)[O-])ccc3Cl)o2)c1	0.88µg/mL*
Cc1ccc2cc(CCNC(=S)NC(C)(C)C)c(=O)[nH]c2c1C	6%
O=C(CSc1ccc2nnc(-c3ccc(Cl)cc3)n2n1)Nc1nccs1	0%
COc1ccccc1Cn1cc(C(=O)c2ccccc2)c(=O)c2cc(C)ccc21	21%
COc1ccc(OC)c(NC(=O)c2oc3ccccc3c2NC(=O)C(C)C)c1	-4%
Cc1ccc(NC(=O)c2cnc3n(c2=O)CCS3)c(C)c1	-2%
Cc1cccc(NC(=O)NCc2ccc3[nH]c4c(c3c2)CCCC4)c1	25%
COc1cc(/C=N/N=C(\N)SC)ccc1O	-8%
CCC(CC)C(=O)Nc1nnc(-c2cccc(C)c2)s1	9%
COC(=O)c1c(C)oc2ccc(N(C(=O)c3ccncc3)S(=O)(=O)c3cc(C)ccc3C)cc12	10%
COc1ccc(C)cc1NC(=O)c1cnc2scc(C)n2c1=O	1%
O=C(Cn1cnc2c(cnn2CCO)c1=O)N1CCc2ccccc21	7%
O=C(Nc1nc(-c2ccc(Cl)cc2Cl)cs1)c1ccc2c(c1)OCCO2	0%
CCc1nnc(NC(=O)c2ccco2)s1	-3%
Cc1ccc(Cn2c(=O)c3c(nc4n(-c5ccc(F)cc5)c(C)cn34)n(C)c2=O)cc1	-1%
Cc1ccc(OCC(=O)Nc2ccc(S(=O)(=O)Nc3nccs3)cc2)c(C)c1	-17%
Cc1ccc(NS(=O)(=O)c2cc(C)c3[nH]c(=O)cc(C)c3c2)c(C)c1	-6%
COc1ccc(/C=N/Nc2nc(=O)[nH]nc2C)cc1[N+](=O)[O-]	-14%
O=c1oc2ccccc2cc1-c1csc(Nc2ccc(O)cc2)n1	6%
O=C(/C=C\c1ccccc1)Nc1c(C(=O)Nc2cccc(F)c2)oc2ccccc12	15%
Cc1ccc(-n2c(=O)[nH]cc(C(=O)Nc3cccc(Cl)c3C)c2=O)cc1C	-7%
Further entries:
SMILES	Mtb H37Rv
Cc1cccc(NCC(=O)Nc2ncc(Cc3cc(Cl)ccc3Cl)s2)c1	-6%
CC(=O)Cn1c(=O)c2c(nc3n(-c4ccccc4F)c(C)c(C)n23)n(C)c1=O	-6%
COc1ccccc1C1/C(=C(\O)c2ccncc2)C(=O)C(=O)N1CCCN(C)C (stereo unspecified)	-19%
COc1cc2c(=O)c(S(=O)(=O)c3ccc(F)cc3)cn(Cc3ccc(C)cc3)c2cc1OC	10%
COc1ccc(NC(=O)c2oc3ccccc3c2NC(=O)C2CC(=O)N(c3ccccc3)C2)cc1OC (stereo unspecified)	-7%
CC(=O)Nc1ccc2nc(NC(=O)c3ccc4c(c3)OCCO4)sc2c1	-3%
CC(C)OC(=O)CSc1ccc(S(=O)(=O)C(F)(F)F)cc1[N+](=O)[O-]	21%
CCOC(=O)c1ccc(NC(=O)CSc2nc3c(c(=O)n2CCOC)SC(C)C3)cc1 (stereo unspecified)	57%
Cc1ccc(C(=O)Nc2ccccc2-c2nc3ccccc3s2)cc1	-6%
NC(=O)c1c(Nc2nc3c(F)cccc3s2)sc2c1CCCC2	64%
COCCNC(=O)CSc1nnc(CNC(=O)c2ccc(C(C)(C)C)cc2)o1	5%
O=C(Nc1nnc(-c2ccc(F)cc2)s1)c1ccccc1Cl	5%
CCCCSc1nnc2[nH]c(=O)c(C)c(C)n12	-21%
N#Cc1c(NC(=O)CCSCCC(=O)Nc2sc3c(c2C#N)CCC3)sc2c1CCC2	0%
O=C1Nc2ccccc2/C1=C/C(=O)c1ccc([N+](=O)[O-])cc1	48µg/mL*
CCOC(=O)c1nn(-c2ccccc2)c(=O)c2c(NC(=O)c3ccccc3C)scc12	-8%
O=C(O)c1ccc(CNC(=O)c2ccccc2C(=O)O)cc1	-13%
CCOC(=O)c1nn(-c2ccc(Cl)cc2)c(=O)c2c(NC(=O)C34CC5CC(CC(C5)C3)C4)scc12	-3%
Cc1ccccc1-c1nnc(NC(=O)c2ccco2)s1	13%
O=C(Nc1ccccc1Oc1ccccc1)c1cccc(N2C(=O)CCC2=O)c1	-20%
Cc1ccccc1-c1nsc(SCC(=O)NCc2ccc3c(c2)OCO3)n1	20%
Cc1ccccc1N=c1oc2ccc([N+](=O)[O-])cc2cc1C(N)=O	6%
COc1ccc(OC)c(-c2nc(C(N)=O)c3[nH]c(=O)n(-c4ccc(F)cc4)c3n2)c1	1%
O=C(CCCCCn1c(=S)[nH]c2cc3c(cc2c1=O)OCO3)NCCC1=CCCCC1	-1%
O=C(CSc1ccc2nnc(-c3ccc(F)cc3)n2n1)N1CCOCC1	1%
Carrying on.
SMILES	Mtb H37Rv
COc1ccc(C(=O)CSc2nc(C)nc3c2c(=O)n(C)c(=O)n3C)cc1	-14%
O=C(O)c1ccccc1SC1CC(=O)N(c2ccc(Cl)c(C(F)(F)F)c2)C1=O (stereo unspecified)	-10%
O=C(Nc1cccc(-c2nc3ccccc3o2)c1)c1ccc(-c2nc3ccccc3s2)s1	3%
COc1cccc(N2CCn3c2nc2c3c(=O)n(CC(=O)O)c(=O)n2C)c1	-10%
O=C1c2ccccc2S(=O)(=O)c2ccc(-c3nn4c(-c5ccccc5Br)nnc4s3)cc21	-7%
COc1ccc(C(=O)NNc2ncnc3c2cnn3-c2ccc(C)c(Cl)c2)cc1OC	10%
O=C(OCn1nnc2ccccc2c1=O)c1cc2ccccc2oc1=O	-6%
CCOC(=O)c1nn(-c2ccccc2)c(=O)c2c(NC(=O)c3ccc([N+](=O)[O-])cc3)scc12	-7%
Cc1ccc(C)c(-c2csc(NC(=O)c3ccc([N+](=O)[O-])cc3)n2)c1	1%
CCNC(=S)NCCc1cc2ccc(C)c(C)c2[nH]c1=O	7%
CCOC(=O)c1nn(-c2ccc(OC)cc2)c(=O)c2c(NC(=O)c3ccccc3)scc12	4%
O=C(Nc1nnc(-c2ccccc2Cl)s1)c1cccs1	19%
O=C(Nc1cccc(-c2ccc3nnc(-c4cccnc4)n3n2)c1)c1ccccc1F	11%
CCCCSc1nc2c(c(=O)[nH]1)C(c1ccc(N(C)C)cc1)C1=C(CCCC1=O)N2 (stereo unspecified)	-6%
CSc1nnc(CNC(=O)c2ccc(C(C)(C)C)cc2)n1-c1ccc(F)cc1	0%
COc1ccc(NC(=O)CSc2nnc(C)n2N)cc1	-1%
C=CCc1cccc2cc(C(=O)OCC(=O)c3ccc(Br)cc3)c(=O)oc12	-5%
O=C(Nc1ncc(Cc2ccccc2)s1)C1CCCCC1	92%
COc1ccc(CNc2nc3c(-c4cccc(F)c4)nnn3c3ccccc23)cc1	-5%
Cc1cc(C)c(S(=O)(=O)N2CCN(C(=O)CCn3nc(C)c(Br)c3C)CC2)c(C)c1	-3%
NC(=O)c1nc(-c2ccc(C(F)(F)F)cc2)nc2c1[nH]c(=O)n2-c1ccc2c(c1)OCO2	18%
CC1CCc2c(sc(NC(=O)CS(=O)(=O)c3ccccc3)c2-c2nc3ccccc3s2)C1 (stereo unspecified)	5%
CC(C)C(Br)C(=O)Nc1nnc(-c2cccc([N+](=O)[O-])c2)s1 (stereo unspecified)	38%
Cc1ccccc1-c1noc(-c2nnn(-c3cc(Cl)ccc3C)c2C)n1	-9%
COc1cccc(-n2nnc3c(SCC(=O)NCc4ccco4)ncnc32)c1	-17%
New compounds follow
SMILES	Mtb H37Rv
Cc1ccc(NC(=O)CN2N=NC3C(=O)N(c4ccc(Cl)cc4)C(=O)C32)c(Cl)c1 (stereo unspecified)	-12%
O=C(Cn1cnc2c(cnn2-c2ccc(F)cc2)c1=O)NCc1ccco1	-4%
COC(=O)c1ccc(CSc2ncnc3c2nnn3-c2ccc(F)cc2)o1	38%
O=C(CS(=O)(=O)c1ccccc1)Nc1nc(-c2ccc(-c3ccccc3)cc2)cs1	63%
CCOc1ccccc1C1C(C(=O)Nc2ccccc2C)=C(C)Nc2nnnn21 (stereo unspecified)	2%
CC(=O)N1CCc2c(sc(NC(=O)c3cc(Cl)ccc3Cl)c2-c2nc3ccccc3s2)C1	-2%
Cc1cccc(-c2nnc(NC(=O)c3ccccc3[N+](=O)[O-])s2)c1	-4%
O=C(Nc1cccc2c1CCCC2)c1cnc2n(c1=O)CCS2	-8%
Cc1nc2ncc(C(=O)O)c(=O)n2[nH]1	7%
O=C(CSc1nc2[nH]ncc2c(=O)[nH]1)NC1CCCCC1	-12%
Cc1cccc(-c2nnc(NC(=O)C3CC3)s2)c1	4%
NC(=O)CSc1ccc2nnc(-c3cccnc3)n2n1	5%
COc1cc(C(=O)Nc2nc3ccc(Cl)cc3s2)cc(OC)c1OC	5%
COc1cccc(N2CC(NC(=O)c3ccc(Br)cc3)CC2=O)c1 (stereo unspecified)	-25%
Cc1cc(C)c(C(=O)Nc2ccc(C(=O)OC(C)C)cc2)c(C)c1	-21%
Nc1c(C(=O)c2ccccc2)sc2nc(C3CC3)cc(-c3ccccc3)c12	52%
CCOC(=O)c1nn(-c2ccccc2)c(=O)c2c(NC(=O)CCl)scc12	74%
Nc1ncnc(Nc2ccc(Oc3ccc(Cl)cc3)cc2)c1[N+](=O)[O-]	-6%
O=C(Nc1cccc(-c2ccc(N3CCCCC3)nn2)c1)c1cccs1	23%
CCOc1cccc(-c2nc(C(N)=O)c3[nH]c(=O)n(-c4cccc(C)c4)c3n2)c1O	-7%
COc1ccccc1-n1c(O)c(C2=c3ccccc3=NC2=O)sc1=S	-13%
COc1ccc2c(c1OC)C(=O)OC2Nc1ccc(CC(=O)O)cc1 (stereo unspecified)	-2%
O=C(Nc1nnc(-c2cc(Cl)ccc2Cl)o1)c1cc(-c2ccccc2)nc2ccccc12	2µg/mL*

Entries from the list above that have a furan ring, fused or not (ten):
SMILES	Mtb H37Rv
CC1CCc2oc3c(cc(NS(=O)(=O)c4ccc(C(C)(C)C)cc4)c4ccccc43)c2C1 (stereo unspecified)	-2%
COc1ccc(OC)c(NC(=O)c2oc3ccccc3c2NC(=O)C(C)C)c1	-4%
COC(=O)c1c(C)oc2ccc(N(C(=O)c3ccncc3)S(=O)(=O)c3cc(C)ccc3C)cc12	10%
CCc1nnc(NC(=O)c2ccco2)s1	-3%
O=C(/C=C\c1ccccc1)Nc1c(C(=O)Nc2cccc(F)c2)oc2ccccc12	15%
COc1ccc(NC(=O)c2oc3ccccc3c2NC(=O)C2CC(=O)N(c3ccccc3)C2)cc1OC (stereo unspecified)	-7%
Cc1ccccc1-c1nnc(NC(=O)c2ccco2)s1	13%
COc1cccc(-n2nnc3c(SCC(=O)NCc4ccco4)ncnc32)c1	-17%
O=C(Cn1cnc2c(cnn2-c2ccc(F)cc2)c1=O)NCc1ccco1	-4%
COC(=O)c1ccc(CSc2ncnc3c2nnn3-c2ccc(F)cc2)o1	38%

A portion of the library (hit frequency here may not be typical).
